# MARV entry inh: qHTS for inhibitors of binding or entry into cells for Marburg Virus | Potency, µM (top dose mostly 37.8 µM), inactives show at the top dose activity change, negative = inhibition, most hits filed as inhibitors | actives 1.8% (n = 300,000) | Marburg virus pseudotyped entry inhibition, cell reporter; control for the full effect not named in the record; about a third of the inactives were read at about 46 µM | AID 540276, 2011; active = well fitted inhibition curve with a large enough effect; inconclusive = small, poorly fitted or top-dose-only effect, or effect the other way; inactive = flat fitted curve, though single readings scatter; tested in HEK293 cells; about a fifth of its hits are not listed in these tables; also: % is scaled to controls: 0 for no effect and ±100 for the full control effect; luciferase read-out
# SARS PLpro yeast: qHTS of Yeast-based Assay for SARS-CoV PLP | Potency, µM (top dose mostly 32.9 µM), without a hit: at the highest dose activity, positive = growth rescue | S. cerevisiae expressing SARS-CoV PLpro, growth rescue; control for the full effect not named in the record | actives 0.19% (n = 330,000); active means well fitted rising curve with a large enough effect; inconclusive means small, poorly fitted or top-dose-only effect; inactive means no such curve, though single readings can be large or run the other way; also: 0% is about no effect; nearly all actives have a fitted effect of over 55% in size; growth read by luminescence after 48 h
# RE007 growth inh: qHTS Assay for Inhibitors of the HIV-1 protein Vpr; S. pombe RE007 Vpr strain, BacTiter-Glo ATP luminescence, 24 h; control for the full effect not named in the record; Potency, µM (doses to about 92.2 µM), for inactives: at the top dose activity change, negative = less growth; actives 0.21% (n = 360,000); AID 651644, 2012; active = well fitted falling curve with a large enough effect; inconclusive = small, poorly fitted or top-dose-only effect; inactive = no such curve, though single readings can be large or run the other way;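 also: % is scaled to controls: 0 for no effect and ±100 for the full control effect; nearly all actives have a fitted effect of over 50% in size; the assay follows cell death caused by Vpr and the record does not say whether a fall means rescue or toxicity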
#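 Fission yeast strain RE007, carrying one chromosomally integrated HIV-1 vpr copy, was seeded at OD 0.01 in PMG+AL medium with 23 nL pinned compound. After 24 h at 30 °C and 99% humidity, viability was read by BacTiter-Glo luminescence.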
# NS1 function inh: qHTS Assay for Inhibitors of Influenza NS1 Protein Function; S. cerevisiae slowed by influenza A NS1, growth recovery by OD600; Potency, µM (titrated, usually from 46.1 µM), for inactives: top-dose activity, positive = more growth; actives 0.4% (n = 270,000); active means well fitted rising curve with a large enough effect; inconclusive means small, poorly fitted or top-dose-only effect; inactive means no such curve, though single readings can be large or run the other way; also: nearly all actives have a fitted effect of over 50% in size
#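 Recovery from NS1-induced slow growth read by OD600 in budding yeast switched to galactose assay medium (pH 6.0, -URA) at 1:100 dilution. Compound 23 nl per well; the matching strain lacking NS1 serves as control.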
# Cruzain noTriton: qHTS Assay for Promiscuous and Specific Inhibitors of Cruzain (without detergent); actives 2.3% (n = 200,000); Cruzipain (Trypanosoma cruzi), P25779; Potency, µM, for inactives: max response, negative = inhibition, hits mostly inhibitors; purified cruzain, Z-FR-AMC fluorescence, no detergent;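 also: plate controls were enzyme without inhibitor for no effect and buffer without enzyme for full effect; nearly all actives have a fitted effect of over 40% in size; top concentration of the series not given in the record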
# Target sequence (P25779 123-467 limits assumed): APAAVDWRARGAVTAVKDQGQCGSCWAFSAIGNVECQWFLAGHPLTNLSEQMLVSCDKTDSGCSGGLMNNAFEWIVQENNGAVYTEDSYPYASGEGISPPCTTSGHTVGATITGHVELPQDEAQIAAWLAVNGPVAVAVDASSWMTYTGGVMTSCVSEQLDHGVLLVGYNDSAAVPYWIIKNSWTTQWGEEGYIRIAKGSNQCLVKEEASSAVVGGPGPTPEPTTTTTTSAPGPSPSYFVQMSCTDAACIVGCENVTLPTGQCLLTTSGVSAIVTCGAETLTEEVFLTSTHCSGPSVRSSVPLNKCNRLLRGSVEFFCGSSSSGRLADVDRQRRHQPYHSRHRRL
#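 Purified cruzain at 1.5 nM, pre-incubated 15 min with compound at room temperature in 100 mM sodium acetate pH 5.5, 5 mM DTT, 0.00005% Triton X-100. Reaction started with 2 uM Z-FR-AMC; AMC fluorescence increase over 60 s gives rate.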
# Cruzain inh Det: qHTS Assay for Promiscuous and Specific Inhibitors of Cruzain (with detergent). Cruzipain (Trypanosoma cruzi), P25779. purified cruzain, Z-FR-AMC fluorescence, 0.01% Triton. Potency, µM, for the others: max response, negative = inhibition, actives largely listed as inhibitors. actives 0.43% (n = 200,000);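 also: plate controls were neutral wells for no effect and buffer without enzyme for full effect; nearly all actives have a fitted effect of over 40% in size; top concentration of the series not given in the record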
#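 Cruzain (1.5 nM) preincubated 15 min at RT with compound in 100 mM sodium acetate pH 5.5, 5 mM DTT, 0.01% Triton X-100. Reaction started with 2 uM Z-FR-AMC; AMC fluorescence (ex 360/em 450 nm) change over 60 s gave rate.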
# Lassa entry inh: qHTS for Inhibitors of binding or entry into cells for Lassa Virus. Lassa virus pseudotype entry inhibition, cell reporter; control for the full effect not named in the record. Potency, µM (titrated, usually from 37.9 µM), inactives show top-dose activity change, negative = inhibition, most hits filed as inhibitors. actives 1.2% (n = 300,000). AID 540256, 2011; active means well fitted inhibition curve with a large enough effect; inconclusive means small, poorly fitted or top-dose-only effect, or effect the other way; inactive means flat fitted curve, though single readings scatter; tested in HEK293 cells; also: % is scaled to controls: 0 for no effect and ±100 for the full control effect; nearly all actives have a fitted effect of over 50% in size; luciferase read-out
# 2A StopGo: High Throughput Screening for Foot and Mouth Disease Virus Antivirals; human cells with a luciferase reporter of 2A StopGo recoding; control for the full effect not named in the record; Potency, µM (highest dose often 57.9 µM), inactives show at the highest dose signal change, negative = less light; actives 1.2% (n = 410,000); AID 1159524, 2015; active = well fitted falling curve with a large enough effect; inconclusive = small, poorly fitted or top-dose-only effect; inactive = no such curve, though single readings can be large or run the other way; tested in HEK293T cells; also: % is scaled to controls: 0 for no effect and ±100 for the full control effect; nearly all actives have a fitted effect of over 45% in size; luciferase light after 4 h
# * marks the source's active call; other numbers are inactive results; ? = inconclusive; . = no result given; & = joins results of further samples; [ ] = remark or other dose. Unless noted, calls follow the shape of the dose curve; as a rule, active = well fitted curve in the direction sought with a large enough effect; inconclusive = small, poorly fitted or top-dose-only effect, or another doubt; inactive = no such curve, though single readings can be large; an effect the other way counts as inactive or inconclusive. Potency is read from the fitted curve at half-maximal effect.
SMILES,MARV entry inh,SARS PLpro yeast,RE007 growth inh,NS1 function inh,Cruzain noTriton,Cruzain inh Det,Lassa entry inh,2A StopGo
COc1ccc(CN2C(=O)c3ccccc3C2=O)cc1C(=O)Nc1ccc(C)cc1C,10%,-9%,-5%,1%,-6%,-3.8%,3%,-22%
Cc1nnc(N(C)C(=O)c2ccncc2)s1,.,0%,15%,2%,.,.,.,9%
Cc1[nH]c2ccccc2c1C(=O)CNc1nccs1,15%,0%,-4%,5%,-8%,0.0%,15%,-3%
CC(C)(CCc1ccccn1)C(=O)C(CCc1ccccn1)CCc1ccccn1,-13%,.,-6%,.,.,.,?,?
CN1CCCN(C(=O)c2cc3c(s2)CCCC3)CC1,.,3%,-5%,10%,.,.,.,-1%
CCn1cc(C(=O)NCCC(=O)OC)c(=O)c2cc3c(cc21)OCO3,.,1%,8%,5%,.,.,.,6%
CC(C)N1CCC(NC(=O)Nc2ccccc2)CC1,1%[46.1 µM],0%,3%,3%,.,.,0%,2%
COc1ccc(S(=O)(=O)N2CCN(C(=O)[C@@H]3CCC(=O)N3C3OC(=O)c4ccccc43)CC2)cc1 (some centres not stated),10%&10%[46.1 µM],7%,-5%,-8%,7%,-0.3%,-2%,15%
COC(=O)COc1cccc2c(=O)n(CC(=O)NCCc3ccccc3)ccc12,-2%,-16%,-7%,7%,2%,-1.3%,-4%,-18%
S=C(NC1CCCCC1)N1CCN(Cc2ccccc2)CC1,?,6%,7%,1%,-5%,-0.1%,4%,0%
N#Cc1ccc(-c2ccc(F)cc2)nc1Sc1ccc(F)cc1,?,0%,6%,-2%,?,-2.4%,-27%,3%
O=C(NC(Cc1c[nH]c2ccccc12)C(=O)N1CCOCC1)c1cccs1 (configuration not stated),11%[46.1 µM],2%,8%,.,.,.,-6%[46.1 µM],-8%
CCN(CC)C(=O)Cn1cc(S(=O)(=O)CC(=O)Nc2ccc(C(N)=O)cc2)c2ccccc21,.,-3%,5%,7%,.,.,.,0%
CC(=O)C1=C(C)NC(=S)NC1c1cccc([N+](=O)[O-])c1 (configuration not stated),-4%[46.1 µM],4%,9%,.,.,.,-2%,-5%
O=C(Nc1nc2ccc(Cl)cc2s1)c1ccc(N2CCCCC2)c([N+](=O)[O-])c1,?,8%,1%,26%,5µM*,-3.3%,?,?
Cc1occc1-c1nnc(-c2cc([N+](=O)[O-])cc([N+](=O)[O-])c2)o1,?,-5%,?,22%,.,.,2%[46.1 µM],5%
Cn1cc(S(=O)(=O)N2CCCC2)cc1C(=O)Nc1cccc(C(F)(F)F)c1,16%[46.1 µM],2%,-13%,9%,.,.,0%[46.1 µM],-20%
NC(=O)CC(NC(=O)c1ccccc1)c1ccc(N2CCC(N3CCCC3)CC2)c([N+](=O)[O-])c1 (configuration not stated),.,1%,8%,8%,.,.,.,3%
COC(=O)c1ccc(OCC(O)CN(CCO)CC(O)Cn2ccc3ccccc32)cc1 (configuration not stated),?,4%,-1%,-6%,17%,-1.9%,?,-25%
O=C(Nc1ccc(N2CCCC2)cc1)c1ccc(Br)o1,-25%,1%,6%,9%,7.9µM*,?,-4%,.
CCCC(=O)Nc1nc(C)c(-c2csc(Nc3ccccc3C)n2)s1,.,-7%,14%,2%,-27%,1.6%,.,9%
COc1ccc(-c2nnc(SCC(=O)NCCc3ccc(OC)c(OC)c3)nc2-c2ccc(OC)cc2)cc1,9%[46.1 µM],.,.,.,?,-12%,-26%[46.1 µM],-16%
Cc1ccc(CSc2ncc(Cl)c(C(=O)Oc3ccccc3F)n2)cc1,1%[46.1 µM],.,.,.,-3%,0.5%,17%[46.1 µM],-8%
Cc1cc(C)c(C#N)c(SC(C(=O)NC(C)(C)C)c2ccccc2)n1 (configuration not stated),-18%,0%,18%,2%,.,.,9%,19%
COc1ccc(N2CCN(S(=O)(=O)CCNC(=O)COc3ccccc3C)CC2)cc1,0%,1%,-13%,.,.,.,-3%,-11%
# (cont.)
SMILES,MARV entry inh,SARS PLpro yeast,RE007 growth inh,NS1 function inh,Cruzain noTriton,Cruzain inh Det,Lassa entry inh,2A StopGo
O=C(Nc1ccc(N2CCCCC2)cc1)c1ccccc1,?,-15%,?,0%,-6%,-1.5%,7.3µM*,.
CCOc1ccc(-c2cc(-c3nc(-c4cc(OC)c(OC)c(OC)c4)no3)[nH]n2)cc1,.,.,.,.,-6%,4.4%,-4%[46.1 µM],0%
O=S(=O)(c1ccc(NC(=S)NN=C2CCCCC2)cc1)N1CCOCC1,10%[46.1 µM],-4%,-7%,25%,.,.,-11%,43%[activator]
COc1ccc(CCNC(=O)c2ccc(OCC(=O)N3CCOCC3)c(OC)c2)cc1OC,?,7%,-3%,5%,.,.,8%,-13%
C#CCNC(=O)C1=C[C@@H](C(C)(C)C)C[C@@H](OCc2ccc(CO)cc2)O1,.,0%,4%,1%,.,.,.,-23%
CCCn1c(C2CCCN2c2nc(C)cs2)nc2cc(Cl)c(Cl)cc21 (configuration not stated),.,?,-10%,48%,.,.,.,0%
COc1ccc(NC(=O)CN2CCN(CC(=O)Nc3ccc4c(c3)OCO4)CC2)cc1,5%[46.1 µM],-2%,0%,-2%,-3%,6.8%,7%,-9%
CSc1cccc(NC(=O)OC2CCCCCCCCCCC2)c1,.,-4%,.,-18%&-7%,-1%,5.4%,.,-16%
CCn1nc(NC(=O)Cc2ccc(OC)cc2)c2cc3cccc(C)c3nc21,6%[46.1 µM],0%,-5%,7%,.,.,-9%,2%
COc1cc(NC(=O)c2cc3ccccc3o2)c(OC)cc1Cl,11%[46.1 µM],7%,39%,-3%,-1%,2.8%,-17%,-16%
CC[C@@H](C(=O)[C@@H](C)[C@@H](O)[C@H](C)CCc1ccc(C)c(O)c1C(=O)O)[C@H]1O[C@](CC)([C@H]2CC[C@](O)(CC)[C@H](C)O2)C[C@@H]1C,.,-29%,3%,-118%,.,.,.,28µM*
CSc1ccc(/C=C/C(=O)c2ccc(NC(=O)C(C)C)cc2)cc1,12%,-6%,-24%,-3%,4%,-3.3%,-14%,?
CCOc1ccc(-n2c(-c3ccc(OC)cc3)cc3c2CC(C)(C)CC3=O)cc1,0%[46.1 µM],.,.,.,5%,-3.1%,-3%[46.1 µM],-25%
COc1ccc(CC(C)NS(=O)(=O)c2ccc3c(c2)CCN3S(C)(=O)=O)cc1OC (configuration not stated),-9%&-8%[46.1 µM],1%,-13%,0%,2%,0.1%,-9%&4%[46.1 µM],-10%&-24%
Cc1nn(C)c(C)c1NC(=O)CCl,3%[46.1 µM],0%,5%,0%,.,.,11µM*,-7%
COc1ccc(NC(=O)Nc2ccc(OC)cc2)cc1,5%,-1%,0%,-1%,-6%,4.1%,18%,38%[activator]
Cc1ccc(C(=O)NC(=S)Nc2ccccc2C)cc1,5%,0%,?,9%,.,.,-10%,18%
O=C(Cn1cc([N+](=O)[O-])cn1)N1CCN(c2ccccc2)CC1,10%,-3%,6%,20%,.,.,8%,-16%
O=C(COC(=O)CCN1C(=O)c2ccccc2C1=O)Nc1ccccc1[N+](=O)[O-],-15%,-1%,1%,.,.,.,-4%,-17%
Cc1cc2[nH]c(=O)c(=O)[nH]c2cc1S(=O)(=O)Nc1ccccc1F,.,3%,-3%,7%,.,.,.,-15%
O=C(CCN1CCCC1=O)NC1CCCc2c1cnn2-c1ccccc1F (configuration not stated),.,-3%,10%,5%,.,.,.,-19%
N#Cc1ccccc1NC(=O)CN1CCN(c2ccccn2)CC1,7%[46.1 µM],1%,0%,3%,.,.,16%[46.1 µM],-16%
COc1ccccc1N(C1=NCCCS1)S(=O)(=O)c1ccc(C(C)(C)C)cc1,?,-2%,-10%,-3%,.,.,17%,-1%
Cc1cccc(Cn2c(Cc3ccccc3)nc3ccccc32)c1,?,-108%,-6%,-28%,-3%&-3%,-9.7%&-6.9%,29%[46.1 µM],-20%&-23%
CN(c1ccccc1C(=O)Nc1ccc(S(=O)(=O)N2CCOCC2)cc1)S(=O)(=O)c1ccccc1,-17%,10%,-1%,-15%,7%,-0.6%,?,-11%
# Later entries:
SMILES,MARV entry inh,SARS PLpro yeast,RE007 growth inh,NS1 function inh,Cruzain noTriton,Cruzain inh Det,Lassa entry inh,2A StopGo
CCOC(=O)c1cc(CC)sc1NC(=O)CN1C(=O)C(=O)N(CC(C)C)C1=O,1%,-1%,19%,.,.,.,0%,9%
CN(CC(=O)Nc1cccc(F)c1)CC(=O)Nc1cccc(S(=O)(=O)N2CCCCCC2)c1,.,-1%,18%,-7%,.,.,.,-24%
O=[N+]([O-])c1cc(-c2cccnc2)n[nH]1,?,.,10%,.,.,.,?,9%
CCOc1cccc(C(=O)N(Cc2ccc(F)cc2)C2CCS(=O)(=O)C2)c1 (configuration not stated),13%,6%,10%,1%,5%,1.8%,6%,-13%
Cc1ccc2ccc(C(Nc3cccc(C(F)(F)F)c3)c3cccnc3)c(O)c2n1 (configuration not stated),.,10µM*,-1%,5%,.,.,.,-15%
COc1ccccc1C(=O)N/N=C/C(C)=C/c1ccccc1,?,-5%,-11%,-35%,.,.,18%,51%[activator]
COc1ccc(/C=C/C(=O)c2ccc(OC)cc2O)cc1,5%,3%,-10%,-14%,-3%,-5.2%,-26%,-1%
Cc1ccc(S(=O)(=O)N2CCN(S(=O)(=O)c3ccccc3)C2)cc1,-1%,-1%,-2%,-5%,-17%,1.9%,-15%[14.3 µM],-15%
CC(=O)NS(=O)(=O)c1ccc(NC(=O)c2cccc3ccccc23)cc1,22%[46.1 µM],.,9%,.,.,.,1%[46.1 µM],24%
Cc1cccc(NC(=S)NC2CCCC2)c1,16%,?,-22%,10%,-6%,5.0%,2%,31%[activator]
C=CCn1c(SCC(=O)N2CC(=O)Nc3ccccc32)nc2scc(-c3ccccc3)c2c1=O,?,-6%,-6%,?,?,-0.7%,?,?
COc1ccc(/C(O)=C2/C(=O)C(=O)N(CCCN(C)C)C2c2ccccc2)cc1Cl (configuration not stated),1%,-5%,.,-4%,-9%,0.9%,.,.
O=Cc1c(Nc2ccccc2Cl)nc2ccccn2c1=O,.,-9%,-7%,-33%,.,.,.,4%

# Source: PubChem (National Center for Advancing Translational Sciences (NCATS))
